Compound activity: PubChem, several laboratories
ALR inh = human ALR oxidase inhibition via reduced H2O2. P55789. purified ALR, DTT oxidation, H2O2 HRP-luminol luminescence. inhibition, % (concentration not given with the values). 290,000 tested, 3.8% active. AID 485317;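 active = mean and each replicate at 75% or more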;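 note: stock transfer was 7.5 nL into about 7.5 µL; 0% = neutral wells and 100% = wells with inactivated enzyme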
Target sequence (P55789 whole entry, looked up): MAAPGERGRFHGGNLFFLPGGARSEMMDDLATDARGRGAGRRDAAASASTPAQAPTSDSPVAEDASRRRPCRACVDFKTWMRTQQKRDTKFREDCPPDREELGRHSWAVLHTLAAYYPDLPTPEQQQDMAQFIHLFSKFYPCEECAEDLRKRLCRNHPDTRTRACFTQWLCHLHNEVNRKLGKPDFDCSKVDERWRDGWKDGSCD
Bfl-1 A1 inh = inhibitors of the anti-apoptotic protein A1, read as caspase activation; MEF A1-2A-BIM cells, Caspase-Glo 3/7 luminescence, 3 h; percent of clofoctol response, vehicle zero; caspase activation, % (concentration not given with the values); 330,000 tested, 0.066% active; AID 2462;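 active = over half of replicate activation scores above 10%, or exactly half above 10 with the replicate mean above 10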;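 note: wells of about 30 µL received 50 nL stock; many hits fall short of the cut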
T cruzi inh = T. cruzi replication inhibition; 300,000 tested, 1.4% active; inhibition, % (concentration not given with the values); AID 1885; T. cruzi beta-gal in NIH3T3, luminescence, 90 h;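 active = mean inhibition across valid replicates above about 55%, limit read from the data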;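 note: signal also drops with host cell toxicity which is not excluded here; 0% = plate median of DMSO wells and 100% = zero luminescence signal; higher percent means less beta-gal luminescence so fewer parasites; stock transfer was 50 nL into about 50 µL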
Beta apoptosis = blocks beta cell apoptosis | INS-1E cytokine-induced death, ATP luminescence, 48 h; percent of positive-control rescue, neutral wells zero | protection from apoptosis, % (no concentration beside the values) | 300,000 tested, 0.8% active | AID 435005;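 active = all replicates at 75% or more, or half of them and the mean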;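 note: 0% = cytokine-treated negative control wells and 100% = positive control rescue; higher means more ATP so stronger rescue from cytokine killing; wells of about 40 µL received 100 nL stock; the first replicate is given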
Calb FLC = C. albicans growth modulation with fluconazole | growth inhibition, % (concentration not given with the values) | C. albicans CaCi-2 (fluconazole-resistant clinical isolate) + fluconazole, Alamar Blue growth, 48 h | 300,000 tested, 0.57% active;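 active = most replicates above 75%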;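 note: all wells also contain fluconazole at 8 µg/ml as a sub-toxic cotreatment; 0% = median of DMSO wells and 100% = median of geldanamycin control wells; wells of about 8 µL received 7.5 nL stock; the first replicate is given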
Beta2AR agonist = activates human beta-2 adrenergic receptor causing internalization. P07550. Am2.2-beta2AR cells, FAP receptor internalization, flow cytometry; reference of the scale not given here. response, % (test concentration not listed). 340,000 tested, 0.43% active. AID 504454;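 active = response above a set limit, near 3 SD of response in nonfluorescent compounds, cut at about 42% in these data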;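 note: stock transfer was 100 nL into about 11 µL; a reference agonist was the positive control; negative values mostly stem from fluorescent compounds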
Target sequence (P07550 whole entry, looked up): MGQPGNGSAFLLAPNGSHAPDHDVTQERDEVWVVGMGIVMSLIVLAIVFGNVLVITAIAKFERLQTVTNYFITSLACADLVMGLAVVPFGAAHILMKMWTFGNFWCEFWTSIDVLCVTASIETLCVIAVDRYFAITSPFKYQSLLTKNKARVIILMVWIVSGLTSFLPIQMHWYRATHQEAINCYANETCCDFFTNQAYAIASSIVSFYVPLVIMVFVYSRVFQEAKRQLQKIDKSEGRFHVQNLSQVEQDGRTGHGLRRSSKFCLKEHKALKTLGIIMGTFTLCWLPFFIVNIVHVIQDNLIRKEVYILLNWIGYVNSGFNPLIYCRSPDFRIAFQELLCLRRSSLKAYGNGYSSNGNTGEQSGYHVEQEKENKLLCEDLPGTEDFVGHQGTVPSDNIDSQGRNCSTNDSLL
rRNA inh HTS = inhibits bacterial ribosomal RNA function over humanized ribosomes | 350,000 tested, 1.6% active | E. coli WT GFP vs humanized-ribosome RFP mutants, fluorescence, 24 h; stronger effect = lower value; DMSO median 0, no signal -100 | GFP signal change (wild-type ribosome), % (no concentration beside the values);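 active = significant combined selectivity score with lowered wild-type GFP, culture density cut under 30%, mutant RFP and density less affected; inactive = any of these conditions unmet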; note: one replicate is shown; some compounds called inactive have numbers as strong as hits
LANA-H2B inh = blocks KSHV LANA binding to histone H2A/H2B; Q9QR71; cell-free LANA-H2A/H2B peptide, fluorescence polarization; inhibition, % (concentration not given with the values); 320,000 tested, 0.6% active; AID 2629; in the data active = inhibition mostly above about 10%, no sharp cut-off; inactive = mostly below about 6.7%;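 note: stock transfer was 7.5 nL into about 10 µL; 0% = median of vehicle wells and 100% = median of positive control wells; one replicate is shown; the record names a cut of 25% in any replicate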
rRNA inh HTS OD600 = second read-out of rRNA inh HTS, no call of its own (marks repeat the call); OD600 change, %; measured here: OD600 growth;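 optical density of the mix in the first replicate; 0 = DMSO median and -100 = no signal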
rRNA inh HTS RFP = also measured in rRNA inh HTS; calls as there; RFP signal change, %; measured here: RFP humanized mutant strains;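 first replicate; 0 = DMSO median and -100 = no signal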
Starred values were filed as active, the others as inactive; · = no result given; & = joins results of further samples. Not all compounds are listed; the hit share may differ from the screen's.

nr	Compound	ALR inh	Bfl-1 A1 inh	T cruzi inh	Beta apoptosis	Calb FLC	Beta2AR agonist	rRNA inh HTS	rRNA inh HTS OD600	rRNA inh HTS RFP	LANA-H2B inh
1	COC(=O)C(NC(=O)c1ccccc1C(=O)O)c1ccc2ccccc2c1 (stereo unspecified)	-26.6	-0.6	-17.5	-0.6	0.7	8.0	21.9	13.9	2.8	-2.5
2	Cc1ccc2nc(-c3cccnc3)cc(C(=O)Nc3ccc(F)cc3C)c2c1	-1.6	0.7	-5.7	11.2	-5.7	7.6	6.0	1.1	2.5	5.1
3	CCCNC(=O)NC(=O)CSc1nnc(-c2ccncc2)n1CC	-8.7	0.4	-19.3	-7.7	2.3	4.0	8.8	8.2	4.8	-3.0
4	Cc1cc(N)ccc1N1CCCC1	98.4*	-0.1	20.6	22.3	2.4	19.5	·	·	·	3.9
5	COc1ccccc1/C(C)=N/Oc1cc(N)cc([N+](=O)[O-])c1	·	-0.7	·	-2.0	·	-1.8	6.3	9.0	-2.2	-4.2
6	O=C(Cc1csc(N2CCOCC2)n1)N/N=C/c1ccc(Cl)cc1Cl	-2.5	-0.7	-8.1	-1.9	11.9	6.5	·	·	·	0.7
7	O=C(Cc1ccc(Cl)cc1)Nc1cccc(C(=O)Nc2ccccc2C(=O)O)c1	10.6	0.0	-15.9	-7.5	-1.5	4.7	-18.5	-26.4	5.5	2.8
8	CCOc1ccc(N2C(=O)C(Cl)=C(Nc3ccccc3O)C2=O)cc1	57.3	-0.8	-21.4	-3.1	-16.1	-52.0	·	·	·	-1.0
9	CCc1ccc(N2CC(C(=O)NC3CCCCC3C)CC2=O)cc1 (stereo unspecified)	-0.9	0.1	-10.9	-0.7	2.5	29.8	1.8	14.2	0.9	-8.3
10	COc1ccc2nc(NC(=O)C3CCN(C(=O)c4ccc(F)cc4)CC3)sc2c1	-9.0	0.3	25.9	5.8	8.7	10.0	-37.0	-31.4	-4.4	2.7
11	CC(C)CSc1nc(N2CCOCC2)c2c(c1C#N)CC(C)(C)SC2	-3.8	-1.1	·	-2.5	·	1.4	·	·	·	-2.7
12	COc1cc(NC(=S)N(C)C)c(OC)cc1Cl	-13.2	-0.2	-4.3	-1.6	-5.7	-5.3	12.9	1.7	1.1	5.5
13	COc1ccc(C[C@H](N)C(=O)N[C@H]2[C@@H](O)[C@H](n3cnc4c(N(C)C)ncnc43)O[C@@H]2CO)cc1	0.6	-0.3	·	·	·	11.2	-60.1	-73.5	-20.4	-0.2
14	CCN(C(=O)Cn1cnc2ccccc2c1=O)C1CCS(=O)(=O)C1 (stereo unspecified)	-14.4	0.0	-8.5	1.9	-1.0	-2.9	6.3	0.9	-0.3	5.3
15	COc1ccccc1/C=C/C=N/n1c(-c2ccc(F)cc2)n[nH]c1=S	29.1	0.0	-9.5	-0.3	-12.6	7.1	1.6	1.6	2.7	2.0
16	Cc1ccc(SCC(=O)OCC(=O)NCCNC(=O)COC(=O)CSc2ccc(C)c(C)c2)cc1C	-49.3	-1.5	-6.9	-5.6	-1.7	2.5	-2.4	6.1	-1.6	2.9
17	CCN(CC(=O)NC(=O)NCc1ccccc1)Cc1nc2ccccc2c(=O)[nH]1	-6.9	-0.2	9.3	1.6	2.3	-5.0	3.7	-3.4	-0.8	0.1
18	Cc1cc(C)cc(NC(=S)NCc2ccc(F)cc2)c1	0.5	0.3	8.2	-0.9	-21.6	-2.4	-47.9	-54.8	-26.4	-9.4
19	Cc1ccc(-n2cc(CN3CCN(Cc4nccn4C)CC3)c(-c3cccc(C)c3)n2)cc1	-33.8	1.6	41.5	-1.5	-38.1	13.7	-45.8	-79.1	-8.5	-5.7
20	Cc1cc(OCc2cc(C(=O)N(C)CCOc3ccccc3)no2)cc(C)c1Cl	-6.0	-0.5	26.4	-9.2	-3.4	9.2	1.1	-4.9	1.6	-3.0
21	Cc1cccc(C(C)C)c1NC(=O)COC(=O)CNS(=O)(=O)c1ccccc1	-4.7	-0.2	-1.0	-2.9	-3.9	-0.1	5.6	9.9	0.0	-3.5
22	NC(=O)C1(S(=O)(=O)c2ccccc2)CCCCC1	·	-0.1	8.8	3.0	-0.8	0.3	·	·	·	-6.3
23	CCn1c(SCC(=O)NC(C)C)nnc1-c1cccs1	-3.4	-0.1	-1.3	-1.4	-4.3	-4.8	·	·	·	-2.8
24	Cc1ccc(N2CCN(c3ccc(NCc4nc5ccccc5n4C)cc3)CC2)cc1	5.7	0.6	21.3	11.7	18.2	-9.1	-3.0	-4.6	18.3	1.3
25	Brc1cccc(-c2nc3cccnc3nc2-c2cccc(Br)c2)c1	·	2.2	48.9	9.8	-2.1	-6.2	11.4	13.6	2.3	1.3
26	COC(=O)C1=C(CCc2ccccc2)NC(=O)NC1c1ccc([N+](=O)[O-])cc1 (stereo unspecified)	-3.4	-5.9	-15.1	-8.1	-2.3	-7.8	13.4	9.0	2.7	4.3
27	COc1ccc(Cl)cc1NC(=O)CN(C)C(=O)c1n[nH]c2ccccc12	70.6	-0.3	6.8	3.4	0.9	7.3	3.0	1.1	0.4	-1.0
28	CCN(c1ccccc1)S(=O)(=O)c1ccc(OC)c(N=N/C(C(=O)Nc2ccccc2)=C(/C)O)c1	20.6	-0.2	-5.8	8.0	-5.7	-0.2	0.1	6.6	-1.6	-1.6
29	COc1cc(/C=C2\C(=O)NN(c3ccccc3)C2=O)cc([N+](=O)[O-])c1O	98.0*	0.2	-20.2	-5.2	108.6*	2.0	-11.2	-7.2	-3.0	0.3
30	O=C(O)C(O)c1ccccc1 (stereo unspecified)	-7.0&-13.3	-0.4&-0.3	9.8	-4.5&-4.7	·	-0.4&5.9	3.8	5.0	-2.6	-2.4&-7.4
31	COc1ccc(Nc2nnc(C)c3ccccc23)cc1C(N)=O	-6.1	1.0	-7.3	-0.9	10.9	4.0	·	·	·	1.5
32	Cc1nn(-c2cc(Cl)ccc2Cl)c(C)c1C(=O)O	-5.8	1.5	-2.4	-2.3	-8.2	10.1	1.0	0.2	-2.0	-1.4
33	COc1ccc(CN2CCN(Cc3ccccc3F)CC2)cc1OC	0.5	0.6	22.9	·	-4.5	0.8	22.2	10.5	5.0	-0.3
34	CCN(CC)C(=O)c1[nH]cnc1C(=O)Nc1ccon1	0.7	0.1	·	-1.2	·	-6.8	5.3	5.8	1.2	-1.1
35	O=C(CCC(=O)N1CCN(c2ccccn2)CC1)Nc1nnc(C2CCCCC2)s1	-0.1	0.2	8.9	-3.4	-5.0	-4.5	·	·	·	9.5
36	COc1ccccc1OCc1ccc(C(=O)NCc2cccnc2)o1	-15.1	0.3	-17.2	-3.5	0.9	7.4	·	·	·	1.7
37	N#Cc1c(N)oc(-c2ccco2)c1-c1ccco1	-85.2	0.2	13.5	-5.4	15.4	0.6	·	·	·	4.2
38	CC1(C)CC(=O)c2c(oc3ccc(NS(=O)(=O)c4cccc5cccnc45)cc23)C1	2.8	0.3	26.5	-0.7	-4.1	17.7	7.3	-0.3	-0.2	1.3
39	O=C(c1cncc(Br)c1)N1CCN(S(=O)(=O)c2ccccc2C(F)(F)F)CC1	-0.4	0.7	-3.6	1.6	8.6	-3.8	-2.7	1.2	0.1	-7.5
40	CCc1ccc2nc3n[nH]c(N)c3cc2c1	90.2*	-0.8	-14.2	-17.3	-15.0	10.5	·	·	·	1.2
41	CN(CC(=O)Nc1cccc(F)c1)C(=O)CCSc1ccc(F)cc1	0.6	-0.6	-13.5	-10.6	-0.2	-5.4	-9.7	-8.2	-0.6	13.3
42	CC(=O)N/C(=C/c1cccnc1)C(=O)Nc1ccc(Cl)cc1	-8.4	0.5	-17.0	3.9	18.9	-1.7	12.0	-3.8	-9.0	-1.4
43	CCCCc1nnc(NC(=O)c2oc3ccc(OC)cc3c2C)s1	1.2	0.7	6.5	-9.6	12.1	5.6	4.8	9.6	-0.6	-3.2
44	Cc1cc(=O)oc(C)c1C(=O)N1CCCc2ccccc21	-8.4	-0.4	-6.2	-5.1	-2.3	-0.9	·	·	·	1.9

Grouped by structure: those above containing a Cl atom (8)
nr	Compound	ALR inh	Bfl-1 A1 inh	T cruzi inh	Beta apoptosis	Calb FLC	Beta2AR agonist	rRNA inh HTS	rRNA inh HTS OD600	rRNA inh HTS RFP	LANA-H2B inh
6	O=C(Cc1csc(N2CCOCC2)n1)N/N=C/c1ccc(Cl)cc1Cl	-2.5	-0.7	-8.1	-1.9	11.9	6.5	·	·	·	0.7
7	O=C(Cc1ccc(Cl)cc1)Nc1cccc(C(=O)Nc2ccccc2C(=O)O)c1	10.6	0.0	-15.9	-7.5	-1.5	4.7	-18.5	-26.4	5.5	2.8
8	CCOc1ccc(N2C(=O)C(Cl)=C(Nc3ccccc3O)C2=O)cc1	57.3	-0.8	-21.4	-3.1	-16.1	-52.0	·	·	·	-1.0
12	COc1cc(NC(=S)N(C)C)c(OC)cc1Cl	-13.2	-0.2	-4.3	-1.6	-5.7	-5.3	12.9	1.7	1.1	5.5
20	Cc1cc(OCc2cc(C(=O)N(C)CCOc3ccccc3)no2)cc(C)c1Cl	-6.0	-0.5	26.4	-9.2	-3.4	9.2	1.1	-4.9	1.6	-3.0
27	COc1ccc(Cl)cc1NC(=O)CN(C)C(=O)c1n[nH]c2ccccc12	70.6	-0.3	6.8	3.4	0.9	7.3	3.0	1.1	0.4	-1.0
32	Cc1nn(-c2cc(Cl)ccc2Cl)c(C)c1C(=O)O	-5.8	1.5	-2.4	-2.3	-8.2	10.1	1.0	0.2	-2.0	-1.4
42	CC(=O)N/C(=C/c1cccnc1)C(=O)Nc1ccc(Cl)cc1	-8.4	0.5	-17.0	3.9	18.9	-1.7	12.0	-3.8	-9.0	-1.4
